Pol iota inh: blocks human DNA polymerase iota activity. Q9UNA4. Pol iota fluorescent replication assay, 10 min. Potency, µM (titrated, usually from 115 µM), inactives show at the highest dose activity, negative = inhibition, most hits filed as inhibitors. 390,000 tested, 1% active. AID 588590
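Fluorescent replication assay read twice, at 0 min and 10 min after adding 50 nM (final) substrate. Enzyme (10 nM) and compounds were first incubated 15 min at room temperature; enzyme-free buffer wells were negative controls.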
JMJD2A Tudor inh: JMJD2A Tudor domain (human) inhibition. AID 504339. AlphaScreen JMJD2A-Tudor / H3K4me3 peptide binding. 390,000 tested, 4.4% active. Potency, µM (doses to about 114 µM), for inactives: at the top dose activity change, negative = inhibition, most hits filed as inhibitors; also: % is scaled to controls: 0 for no effect and ±100 for the full control effect; nearly all actives have a fitted effect of over 50% in size
BLM helicase inh: blocks DNA unwinding by human BLM helicase | recombinant BLM DNA unwinding, fluorescence dequenching | P54132 | 350,000 tested, 0.2% active | Potency, µM (titrated, usually from 56.1 µM), for inactives: at the top dose activity change, negative = inhibition, usual class: inhibitors;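 also: plate controls were vehicle for no effect and no enzyme for full effect; nearly all actives have a fitted effect of over 35% in size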
Target sequence (P54132 whole entry, looked up): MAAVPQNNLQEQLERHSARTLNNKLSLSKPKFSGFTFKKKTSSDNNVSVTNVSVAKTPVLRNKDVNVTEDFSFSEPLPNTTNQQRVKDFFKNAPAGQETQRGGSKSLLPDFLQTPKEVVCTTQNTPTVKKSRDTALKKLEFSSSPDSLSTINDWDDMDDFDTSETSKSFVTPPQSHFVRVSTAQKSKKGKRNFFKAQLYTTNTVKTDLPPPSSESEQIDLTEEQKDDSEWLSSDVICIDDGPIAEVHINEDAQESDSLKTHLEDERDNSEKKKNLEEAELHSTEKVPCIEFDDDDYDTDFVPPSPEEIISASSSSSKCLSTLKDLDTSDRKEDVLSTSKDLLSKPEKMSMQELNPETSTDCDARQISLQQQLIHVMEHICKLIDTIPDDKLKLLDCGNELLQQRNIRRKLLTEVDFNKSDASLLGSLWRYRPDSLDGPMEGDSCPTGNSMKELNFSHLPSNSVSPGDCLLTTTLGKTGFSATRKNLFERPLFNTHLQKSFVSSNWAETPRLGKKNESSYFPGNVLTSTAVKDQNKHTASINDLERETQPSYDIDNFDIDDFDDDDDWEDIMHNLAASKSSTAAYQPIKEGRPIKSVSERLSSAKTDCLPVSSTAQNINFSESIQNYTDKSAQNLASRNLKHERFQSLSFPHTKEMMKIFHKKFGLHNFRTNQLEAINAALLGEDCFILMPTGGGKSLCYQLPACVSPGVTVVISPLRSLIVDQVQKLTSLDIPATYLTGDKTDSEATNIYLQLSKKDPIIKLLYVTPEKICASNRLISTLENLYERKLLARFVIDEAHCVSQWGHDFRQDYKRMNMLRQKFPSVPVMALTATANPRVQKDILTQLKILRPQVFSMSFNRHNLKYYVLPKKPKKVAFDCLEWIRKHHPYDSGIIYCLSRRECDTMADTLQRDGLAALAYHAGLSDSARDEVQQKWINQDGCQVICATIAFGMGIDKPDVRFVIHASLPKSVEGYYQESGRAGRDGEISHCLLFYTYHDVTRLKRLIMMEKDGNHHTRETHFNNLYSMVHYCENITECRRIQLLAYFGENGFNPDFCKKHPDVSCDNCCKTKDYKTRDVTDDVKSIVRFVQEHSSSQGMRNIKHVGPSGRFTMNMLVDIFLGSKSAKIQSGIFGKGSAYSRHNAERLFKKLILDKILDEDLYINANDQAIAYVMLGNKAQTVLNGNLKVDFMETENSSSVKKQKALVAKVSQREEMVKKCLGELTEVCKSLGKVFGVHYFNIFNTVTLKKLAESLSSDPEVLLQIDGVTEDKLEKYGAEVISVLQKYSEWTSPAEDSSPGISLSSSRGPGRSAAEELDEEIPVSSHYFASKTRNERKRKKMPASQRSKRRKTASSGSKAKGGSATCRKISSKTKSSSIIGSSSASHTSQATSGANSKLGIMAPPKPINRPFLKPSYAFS
G9a block: blocks human histone lysine methyltransferase G9a | Potency, µM (top dose mostly 102 µM), inactives show top-dose activity, negative = inhibition, actives largely listed as inhibitors | G9a H3K9 monomethylation, AlphaScreen, 2 h | 350,000 tested, 8.8% active | Q96KQ7; also: % is scaled to controls: 0 for no effect and ±100 for the full control effect; nearly all actives have a fitted effect of over 75% in size
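Enzyme 20 nM + cpd, 15 min RT; add b-H3K9 pep 500 nM / SAM 20 uM; 2 h RT; anti-H3K9me1 Ab 0.5 ug/mL + SA donor / anti-rabbit acceptor beads 20 ug/mL each, 10 min; AlphaScreen read.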
APE1 inh: blocks human APE1 abasic DNA cleavage; recombinant APE1, TAMRA/BHQ-2 abasic DNA cleavage fluorescence; Potency, µM (doses to about 65.8 µM), inactives show top-dose activity change, negative = inhibition, usual class: inhibitors; 350,000 tested, 0.35% active;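 also: plate controls were vehicle for no effect and reference inhibitor for full effect; nearly all actives have a fitted effect of over 55% in size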
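APE1 at 0.75 nM final was preincubated with compound 15 min at room temperature, then 50 nM double-stranded THF abasic-site substrate (5'-TAMRA/3'-BHQ-2) was added. Fluorescence (ex 525/em 598 nm) was read kinetically; third-minus-first read gave activity.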
Pol kappa inh: blocks human DNA polymerase kappa activity; Potency, µM (highest dose often 107 µM), for inactives: top-dose activity, negative = inhibition, actives largely listed as inhibitors; purified Pol kappa, fluorescent DNA synthesis assay, 10 min; Q9UBT6; 400,000 tested, 0.53% active; also: % is scaled to controls: 0 for no effect and ±100 for the full control effect
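50 nM final substrate added after 15 min RT preincubation of 10 nM Pol kappa with compound; fluorescence read at 0 and 10 min.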
Pol beta inh: DNA polymerase beta (human) inhibition | P06746 | Pol beta primer extension/strand displacement, fluorescence kinetic | Potency, µM (titrated, usually from 114 µM), without a hit: top-dose activity change, negative = inhibition, most hits filed as inhibitors | 340,000 tested, 1.3% active; also: % is scaled to controls: 0 for no effect and ±100 for the full control effect
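Enzyme-only controls used 10 nM Pol beta; buffer lacking enzyme served as negative control. Compound preincubated 15 min, then 50 nM substrate added; 0 and 10 min reads at room temperature.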
Pol eta inh: blocks human DNA polymerase eta activity; Q9Y253; recombinant Pol eta, fluorescent DNA replication assay; Potency, µM (doses to about 114 µM), for the others: at the top dose activity change, negative = inhibition, usual class: inhibitors; 390,000 tested, 1.2% active; also: % is scaled to controls: 0 for no effect and ±100 for the full control effect
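Pol eta at 10 nM preincubated with compounds 15 min at room temperature; reaction started with fluorescent substrate (50 nM final) and read kinetically at 0 and 10 min.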
Active calls of the source: *; ? = inconclusive; nt = no result given; [ ] = remark or other dose. Calls follow the shape of the dose curve; as a rule, active = well fitted curve in the direction sought with a large enough effect; inconclusive = small, poorly fitted or top-dose-only effect, or another doubt; inactive = no such curve, though single readings can be large; an effect the other way counts as inactive or inconclusive. Potency is read from the fitted curve at half-maximal effect. Only part of the results is shown; rates above refer to the full screens.

SMILES	Pol iota inh	JMJD2A Tudor inh	BLM helicase inh	G9a block	APE1 inh	Pol kappa inh	Pol beta inh	Pol eta inh
CCOc1ccccc1-c1cc(C(=O)N/N=C/c2ccc3c(c2)OCO3)c2ccccc2n1	31%[activator]	-15%	-6%	-1%[2.33 µM]	-6%	-5%	-28%	-22%
CN(C)c1ccc(C2Nc3ccccc3C(=O)N2NS(=O)(=O)c2ccccc2)cc1 (stereo not given)	74%[activator]	?	-2%	40µM*	-1%	-6%	22%	-16%
Cc1ccc(NC2CCCN(C(=O)c3ccc(F)cc3)C2)cc1C (stereo not given)	6%	?	-3%	2%[0.501 µM]	-4%	-9%	2%	-2%
Cc1ccc2oc(-c3ccc(NC(=O)c4cccnc4)cc3)nc2c1	-2%	-10%	-2%	-1%[59 µM]	-3%	-2%	?	-15%
Cc1ncc(CO)c(/C=N/NC(=O)c2ccoc2C)c1O	26%	?	nt	9%	0%	-18%	nt	3%
CCOC(=O)C1=C(C)N(C)C(=S)NC1c1cc(OC)ccc1OC (stereo not given)	-14%	-20%[11.4 µM]	-5%	?	6%	-8%	-1%	8%
O=C(Nc1ccc2oc(-c3cccc4c(Br)cccc34)nc2c1)c1ccc(F)cc1	7%	-8%	-2%	-33%[59 µM]	nt	-16%	-3%	-13%
O=C(O)c1ccc(N2C(=O)c3cccnc3C2=O)cc1	77%[activator]	-19%[11.4 µM]	-2%	35µM*	-1%	-7%	-26%	-13%
COc1ccccc1C1CC(=O)n2c(nc(-c3ccccc3)c2-c2ccccc2)S1 (stereo not given)	5%	?	-5%	?	1%	-9%	19%	-18%
COC(=O)c1cccc(S(=O)(=O)N2CCC(NC(=O)NC34CC5CC(CC(C5)C3)C4)CC2)c1	5%	-16%	-17%	-13%[59 µM]	4%	-7%	2%	-3%
N#Cc1nc(-c2cccc3ccccc23)oc1NCC1CCCO1 (stereo not given)	56%[activator]	-11%	1%	-7%[12.7 µM]	0%	-6%	9%	-14%
COc1ccc(CCNc2ccc(N3C(=O)CC(C)C3=O)cc2[N+](=O)[O-])cc1OC (stereo not given)	14%	?	-11%	32µM*	11%	7%	29%	-21%
COC(=O)c1cc(=O)n(Cc2ccc(F)cc2)c(=Nc2ccccc2)s1	17%	?	-18%	?	19%	-7%	1%	-4%
O=C(NCc1cccs1)C1CCCN(c2nc3ccccc3o2)C1 (stereo not given)	-11%[58.9 µM]	-10%	-18%	2%[0.501 µM]	-6%	-14%	4%	-12%
CC(C)COc1ccc(C(=O)Nc2ccc(N3CCOCC3)cc2N2CCOCC2)cc1	5%	-18%	-4%	10µM*	32%	-6%	7%	-22%
O=C(NC12CC3CC(CC(C3)C1)C2)c1ccc(-c2ccc(Cl)cc2)o1	17%	-24%	-9%	20µM*	2%	-9%	4%	-5%
CC1CCCN(c2ccc(F)cc2N)C1 (stereo not given)	57%[activator]	?	0%	?	2%	-1%	-3%	-11%
Cc1c(C(=O)Nc2ccccc2F)sc2ncn(CC(=O)N3CCCCC3)c(=O)c12	15%	5%	-1%	-18%	48%[activator]	2%	9%	-7%
COc1ccc(-c2nc(C#N)c(NCc3ccco3)o2)cc1	10%	-35%	-9%	45µM*	-8%	-4%	5%	-20%
CCOC(=O)NC(Nc1sc2c(c1C(N)=O)CCCC2)(C(=O)OCC)C(F)(F)F (stereo not given)	?	-30%	-1%	13µM*	-1%	-6%	9%	7%
O=C(CSc1ccc(-c2ccccn2)nn1)c1ccc(F)cc1	62%[activator]	0%	1%	3%	-4%	-5%	17%	-16%
COc1ccc(NC(=O)CSc2nnc(-c3cccs3)n2N)c(OC)c1	8%	-12%	nt	18µM*	6%	-7%	nt	-14%
C=CCOc1ccc(/C(CC)=N/O)c(OC)c1	65%[activator]	-19%	-2%	15%[59 µM]	-8%	-19%	0%	-10%
Cc1ccc([N+](=O)[O-])cc1S(=O)(=O)N1CCn2cccc2C1c1ccccc1F (stereo not given)	19%	?	-7%	11µM*	nt	-3%[60.1 µM]	27%	-10%
COc1ccc(/C=C/C=C2\N=C(SC)SC2=O)cc1	7%	?	39%[activator]	3.5µM*	5%	-14%	87%	18%
COC(=O)c1ccc(NC(=O)c2nn(C)c3c2COc2ccccc2-3)cc1	-17%	?	-10%	16µM*	nt	-17%	-16%	-13%
CC(=O)c1cc(-c2ccccc2)n(CC(=O)N2CCC(N3CCCCC3)CC2)c1C	5%	-23%	1%	-4%[59 µM]	2%	-3%	?	-14%
CN1C(=O)/C(=C/c2cccc(Cl)c2)Sc2ccc(C(=O)N3CCOCC3)cc21	22%	-31%	-6%	-5%	1%	7%	2%	3%
OC1CN=C2Sc3ccccc3N2C1 (stereo not given)	-2%	5%	-1%	-6%[59 µM]	1%	-5%	-1%	2%
CC(C)=CC(=O)Nc1nnc(-c2cccnc2)s1	-10%	-3%	-1%	-51%	-2%	5%	7%	-1%
Cc1ccc(-c2ccc(C(=O)Nc3ccccc3)o2)c2ccccc12	-3%	-35%	-6%	40µM*	3%	-4%	14%	-17%
COc1ccccc1NC(=O)CSc1ccc2nnc(-c3ccccn3)n2n1	16%	-17%	-11%	?	1%	5%	10%	-5%
O=C(CCNc1ccc(F)cc1)c1cccc([N+](=O)[O-])c1	-19%	?	-3%	?	-3%	1%	8%	-2%
CCc1c(C)sc(NC(=O)c2cccs2)c1C(=O)OC(C)C	22%	117%[activator]	-2%	219%[activator][59 µM]	21%	-7%	0%	-15%
CCOC(=O)c1cc(-c2ccc(F)cc2)n(CCC(=O)NC2CCN(Cc3ccccc3)CC2)c1C	6%	?	-1%	?	-2%	-6%	25%	-4%
CN(C)CCN(C(=O)c1ccc2c(c1)OCCO2)c1nc2c(Cl)cccc2s1	0%	?	15%	nt	0%	6%	-3%	-26%
c1ccc(CN2CCN(c3nc(-c4ccccc4)nc(-n4ccnc4)n3)CC2)cc1	-4%	?	0%	?	-6%	-15%	0%	-9%
CC(=O)Nc1ccc(/C=C/c2ccc3cccc([N+](=O)[O-])c3n2)cc1	36%[activator]	-2%[11.4 µM]	-7%	50µM*	-5%	8%	-1%	3%
CCOc1ccc(Nc2ccc3nonc3c2[N+](=O)[O-])cc1	98%[activator]	?	-6%	-36%[2.33 µM]	-4%	-17%	32%	0%
O=C(NNC(=O)c1ccccc1[N+](=O)[O-])c1cnccn1	-12%	-10%	3%	-16%	3%	-4%	-2%	-10%
CC(=O)c1ccc(-n2ccnc2)cc1	-9%[58.9 µM]	-11%	-1%	nt	12%	-5%	3%	-10%
Nc1c(C(O)(C(F)(F)F)C(F)(F)F)cc(C(O)(C(F)(F)F)C(F)(F)F)c2ccccc12	-2%	-19%	-19%	2%[59 µM]	-10%	-15%	-9%	?
CCN(CC(=O)Nc1c(F)cccc1F)C(=O)c1ccc(=O)[nH]c1	17%	-8%	1%	20µM*	0%	-12%	5%	2%
O=C(OCCC1Oc2cccnc2NC1=O)c1ccc(Cl)cc1 (stereo not given)	-4%	-10%	-2%	-12%	3%	4%	6%	-1%
CCOC(=O)N1CCN(c2nc(N(c3ccccc3)c3ccccc3)nc(-n3ccnc3)n2)CC1	nt	nt	0%	3%	0%	nt	9%	nt

Profiles as entered above.
c1ccc(CN2CCN(c3nc(-c4ccccc4)nc(-n4ccnc4)n3)CC2)cc1 across the screens: Pol iota inh = -4%; JMJD2A Tudor inh = ?; BLM helicase inh = 0%; G9a block = ?; APE1 inh = -6%; Pol kappa inh = -15%; Pol beta inh = 0%; Pol eta inh = -9%
CCc1c(C)sc(NC(=O)c2cccs2)c1C(=O)OC(C)C across the screens: Pol iota inh = 22%; JMJD2A Tudor inh = 117%[activator]; BLM helicase inh = -2%; G9a block = 219%[activator][59 µM]; APE1 inh = 21%; Pol kappa inh = -7%; Pol beta inh = 0%; Pol eta inh = -15%
COc1ccccc1NC(=O)CSc1ccc2nnc(-c3ccccn3)n2n1 across the screens: Pol iota inh = 16%; JMJD2A Tudor inh = -17%; BLM helicase inh = -11%; G9a block = ?; APE1 inh = 1%; Pol kappa inh = 5%; Pol beta inh = 10%; Pol eta inh = -5%

(next part)
SMILES	Pol iota inh	JMJD2A Tudor inh	BLM helicase inh	G9a block	APE1 inh	Pol kappa inh	Pol beta inh	Pol eta inh
O=C(NCCCN1CCN(c2cccc(Cl)c2)CC1)c1cnn(-c2ccc(F)cc2)c1-n1cccc1	-23%	?	-7%	-29%[59 µM]	nt	-8%	-2%	-12%
CNc1ccc(/C=C/C(=O)c2ccc3c(c2)OCCO3)cc1[N+](=O)[O-]	-3%	?	-3%	8.9µM*	?	-1%	-28%	-6%
O=C(Nc1cccnc1)c1cc([N+](=O)[O-])ccc1Cl	-18%	1%	-5%	-28%	3%	10%	-2%	-5%
COc1ccc(C2=NOC(C(=O)NCc3ccc(F)cc3)C2)cc1 (stereo not given)	9%	2%	-2%	16%	-3%	-7%	20%	-10%
CCOc1ccccc1NC(=O)COc1coc(CN2CCc3ccccc32)cc1=O	?	?	nt	?	-35%	-24%	nt	?
Cn1c(=O)n(C)c2cc(NC(=O)c3ccccc3[N+](=O)[O-])c(Br)cc21	20%	-2%	1%	17%	1%	5%	1%	-14%
O=[N+]([O-])c1ccc(Oc2cccc(Br)c2)c2ccncc12	40%[activator]	?	-15%	25µM*	1%	-7%	7%	?
CCOc1ccc(N/C(SC)=C(/C#N)C(N)=O)cc1	2%[58.9 µM]	-14%	-3%	26%[0.501 µM]	-3%	-7%	3%	-10%
COc1cc2c(cc1OC)C1O[C@](c3ccsc3)(C2)OC2=C1C(=O)OC1(CCCCC1)C2	nt	nt	-4%[12.4 µM]	-9%[2.33 µM]	-11%[12.4 µM]	nt	-25%[22.9 µM]	nt
COc1ccc(OC)c(NC(=O)Cc2coc3ccc4ccccc4c23)c1	5%	-28%	-5%	?	-1%	0%	?	?
O=C(CSc1nc(-c2ccccc2)cn1-c1ccccc1)Nc1ccccc1	9%	?	-9%	?	nt	-8%[60.1 µM]	-2%	?
COc1ccc2c(c1)c1nc3n(c(=O)c1n2CC(=O)Nc1cc(C)[nH]n1)CCS3	nt	nt	1%	-3%	30%[activator]	nt	19%	nt
Cc1nc2cc(F)ccc2n1C1CCN(C(=O)c2ccc(F)cc2F)CC1	2%	-5%	-5%	12%[59 µM]	0%	-5%	2%	-7%
COC(=O)c1cccc(NC(=O)c2ccc(S(=O)(=O)N3CCN(C)CC3)cc2)c1	15%	?	-9%	-38%	-5%	-14%	?	4%
COc1ccc(C(=O)N/C(=C\c2cn(C)c3ccccc23)C(=O)NCCCn2ccnc2)cc1	14%	?	-1%	?	-6%	8%	-9%	-1%
C=CCn1c(C)cc(C2=NNC(=NCc3ccccc3)SC2)c1C	131%[activator]	?	-4%	?	-2%	-3%	30%	-23%

Source: PubChem BioAssay (National Center for Advancing Translational Sciences (NCATS))
